Bioassay records (PubChem)
Vif A3G: HIV-1 Vif–A3G interaction blockers – biochemical, TR-FRET, GST-Vif 1-94, biotin-A3G peptide, dose response retest, primary screen (AID 1117319) | inhibition, %; hits with a dose series show IC50 in µM | hit rate 0.57% among 260,000 | TR-FRET GST-Vif / biotin-A3G peptide binding; higher % means a stronger effect; test concentration not given here; strong numbers were not always called active;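 active = above the screen mean plus three standard deviations and confirmed in dose response; inconclusive = results disagree or hit not tested in dose response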;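 note: Vif residues 1-94 fused to GST binding biotinylated APOBEC3G peptide 110-148; 0% = full assay without inhibitor and 100% = GST in place of GST-Vif; retest series ran down from 100 µM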
Bfl-1 A1 inh: inhibitors of the anti-apoptotic protein A1, read as caspase activation. MEF A1-2A-BIM cells, Caspase-Glo 3/7 luminescence, 3 h; percent of clofoctol response, vehicle zero. caspase activation, % (no concentration beside the values). hit rate 0.066% among 330,000;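 active = over half of replicate activation scores above 10%, or exactly half above 10 with the replicate mean above 10; inconclusive = replicate mean below 10 yet half the replicates above 10; inactive = over half of replicates below 10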;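 note: wells of about 30 µL received 50 nL stock; many hits fall short of the cut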
T cruzi inh: T. cruzi replication inhibition. T. cruzi beta-gal in NIH3T3, luminescence, 90 h. inhibition, % (concentration not given with the values). hit rate 1.4% among 300,000. AID 1885;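 active = mean inhibition across valid replicates above about 55%, limit read from the data; inconclusive = mean below that limit but half or more replicates reach it; inactive = mean below it, under half of replicates reach it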;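 note: signal also drops with host cell toxicity which is not excluded here; 0% = plate median of DMSO wells and 100% = zero luminescence signal; higher percent means less beta-gal luminescence so fewer parasites; stock transfer was 50 nL into about 50 µL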
RanGTP-Imp inh: disruptors of Ran-importin-beta complex formation – biochemical, FRET, CFP-Ran, YFP-importin-beta, homogeneous, primary screen | cell-free CFP-Ran/YFP-importin-beta FRET ratio | inhibition, % (no concentration beside the values) | hit rate 1.1% among 300,000 | AID 2216;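 active = most replicates above 15%; inconclusive = exactly half above 15%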;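 note: 0% = DMSO wells and 100% = Ran loaded with GDP instead of GTP; wells of about 40 µL received 100 nL stock; the first replicate is given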
Calb FLC: C. albicans growth modulation with fluconazole | growth inhibition, % (no concentration beside the values) | AID 1979 | C. albicans CaCi-2 (fluconazole-resistant clinical isolate) + fluconazole, Alamar Blue growth, 48 h | hit rate 0.57% among 300,000;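 active = most replicates above 75%; inconclusive = exactly half above 75%; inactive = most below 75%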;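 note: all wells also contain fluconazole at 8 µg/ml as a sub-toxic cotreatment; 0% = median of DMSO wells and 100% = median of geldanamycin control wells; wells of about 8 µL received 7.5 nL stock; the first replicate is given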
LANA-H2A inh: blocks KSHV LANA binding to histone H2A/H2B; Q9QR71; cell-free LANA-H2A/H2B peptide, fluorescence polarization; inhibition, % (no concentration beside the values); hit rate 0.6% among 320,000; AID 2629; in the data active = inhibition mostly above about 10%, no sharp cut-off; inactive = mostly below about 6.7%;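 note: stock transfer was 7.5 nL into about 10 µL; 0% = median of vehicle wells and 100% = median of positive control wells; one replicate is shown; the record names a cut of 25% in any replicate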
MLL AF4-AF9 inh: blocks AF4 peptide binding to human AF9; P42568; AlphaScreen, biotin-AF4 peptide binding to FLAG-AF9; inhibition, % at 10 µM; hit rate 0.47% among 350,000; AID 651704;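 active = every replicate reaching a set inhibition limit, whatever the replicate mean, cut at about 25% in these data; inconclusive = mean inhibition reaches that limit but some replicates miss it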;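 note: 0% = plate neutral control median and 100% = total signal loss; the record names both 10 and 1 µM as test concentration; the first replicate is given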
Target sequence (P42568 whole entry, looked up): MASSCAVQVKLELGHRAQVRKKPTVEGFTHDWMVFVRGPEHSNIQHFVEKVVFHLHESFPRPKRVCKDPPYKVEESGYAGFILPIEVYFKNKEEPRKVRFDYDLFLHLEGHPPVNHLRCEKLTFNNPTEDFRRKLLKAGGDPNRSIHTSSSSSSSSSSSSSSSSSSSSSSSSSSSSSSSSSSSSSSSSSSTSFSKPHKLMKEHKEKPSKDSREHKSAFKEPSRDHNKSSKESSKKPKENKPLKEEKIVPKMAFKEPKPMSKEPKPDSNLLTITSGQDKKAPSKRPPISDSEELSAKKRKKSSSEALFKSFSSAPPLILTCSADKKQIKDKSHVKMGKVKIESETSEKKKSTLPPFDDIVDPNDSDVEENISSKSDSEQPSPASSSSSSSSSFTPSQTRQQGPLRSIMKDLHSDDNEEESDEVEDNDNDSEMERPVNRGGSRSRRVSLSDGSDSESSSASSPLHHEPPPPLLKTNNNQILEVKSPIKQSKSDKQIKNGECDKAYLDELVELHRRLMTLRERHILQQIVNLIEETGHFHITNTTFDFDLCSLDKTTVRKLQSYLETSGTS
Beta apoptosis: beta cell apoptosis inhibition; INS-1E cytokine-induced death, ATP luminescence, 48 h; percent of positive-control rescue, neutral wells zero; protection from apoptosis, % (test concentration not listed); hit rate 0.8% among 300,000;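 active = all replicates at 75% or more, or half of them and the mean; inconclusive = half reach 75% but not the mean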;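 note: 0% = cytokine-treated negative control wells and 100% = positive control rescue; higher means more ATP so stronger rescue from cytokine killing; wells of about 40 µL received 100 nL stock; the first replicate is given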
Numbers without * were called inactive; ? = inconclusive; / = no result given; & = joins results of further samples.

SMILES	Vif A3G	Bfl-1 A1 inh	T cruzi inh	RanGTP-Imp inh	Calb FLC	LANA-H2A inh	MLL AF4-AF9 inh	Beta apoptosis
CCOC(=O)C1(C)C=C(Nc2ccc(OCC)cc2)C(=O)N1c1ccccc1 (stereo not given)	/	0.9	30	-2.9	23	3.3	-1.3	-6
N#CC1(NC(=O)CSc2nnc(Nc3ccccc3F)s2)CCCC1	-5%	-0.3	/	/	/	3.0	2.5	0
CCCCN1CC[C@H]2C=CC[C@@H](C(=O)Nc3nccs3)[C@H]2C1=O	/	0.2	2	-3.3	-9	-2.7	-3.0	-2
N#CC(c1ccccc1)c1ccc(C(=O)c2ccc(F)cc2)cc1 (stereo not given)	2%	-0.5	10	3.2	?	1.7	/	6
CC(Oc1cccc(F)c1)C(=O)Nc1ccc(N2CCOCC2)cc1 (stereo not given)	12%	-1.0	/	/	/	0.6	0.7	7
Cc1cc2ccccc2n1CCNC(=O)c1ccc(S(=O)(=O)N2CCOCC2)cc1	-25%&-62%	1.9	3	?	-6	-5.2	-16	-1
Cc1csc(NC(=O)c2cccc(S(=O)(=O)N3CCCCC3)c2)n1	7%	0.5	6	2.6	-34	-1.4	/	-1
CCc1ccc(NC(=O)CSc2nnc(SCC(=O)Nc3ccc(CC)cc3)n2N)cc1	4%	-0.9	-1	-3.4	-1	-0.1	/	4
CC(C)n1c(SCC(=O)N2c3ccccc3Sc3ccccc32)nc2c1c(=O)n(C)c(=O)n2C	2%	/	35	0.2	40	/	/	/
COc1ccc(C/C(C)=N/Nc2nc(C)cc(=O)[nH]2)cc1	/	-0.4	-5	-1.3	-4	-1.3	-2.8	-1
CCOC(=O)c1cnc(-c2ccccc2)nc1N1CC(C)OC(C)C1 (stereo not given)	1%	-0.3	10	-0.1	5	-1.7	1.1	0
Cc1nn(-c2ccccc2)c(C)c1NC(=O)COC(=O)c1ccc(O)cc1O	/	2.1	12	-0.9	-16	-1.2	0.0	-3
C=CCNC(=O)c1cc(Cl)ccc1Cl	14%	-0.1	-1	1.6	-5	2.3	/	9
O=C(COC(=O)c1cc(Br)ccc1O)NNC(=O)c1cccs1	/	0.0	/	/	/	2.9	-1.2	-5
Fc1ccc(-n2c(-c3ccco3)n[nH]c2=S)cc1	-5%	1.5	-10	1.0	3	5.2	-41	5
Cc1cc(=O)[nH]c(SCC(=O)NNC(=O)Cc2ccccc2)n1	/	-0.1	-11	0.4	-5	2.5	-0.8	0
CCN(Cc1ccccc1)Cc1ccc(OCc2ccccc2)cc1	-1%	-0.2	11	3.1	19	-3.6	-1.1	4
CN(C)Cc1n[nH]c(=O)c2ccccc12	14%	0.8	-10	3.9	-5	-9.9	-1.1	-3
Cc1ccc(OCCCCN(C)Cc2ccccc2)c(Br)c1	1%	0.3	17	-1.8	-6	-4.8	8.3	1
O=C(NCCCc1ccccc1)Nc1ccccc1	/	2.2	5	0.7	1	5.9	/	2
CC(C)CCn1c(COc2ccccc2)nn(CCC#N)c1=S	-6%	1.3	5	1.3	-12	0.4	-0.8	3
C[C@@H]1CCCCCCCCC(=O)OCCN(C(=O)OC(C)(C)C)[C@H](C)CCCCCCCCC(=O)OCCN(C(=O)OC(C)(C)C)[C@H](C)CCCCCCCCC(=O)OCCN(C(=O)OC(C)(C)C)[C@H](C)CCCCCCCCC(=O)OCCN1C(=O)OC(C)(C)C	/	-0.3	/	/	/	-0.4	-14	1
FC(F)Sc1ccc(NC2=NCCCCC2)cc1	-11%	0.8	-9	2.2	-4	-2.5	-0.7	-11
CCOC(=O)C1CCCN(c2c(NCCCN(C)c3ccccc3)c(=O)c2=O)C1 (stereo not given)	8%	0.7	6	2.2	-5	1.6	-4.4	1
COc1ccc(C(=O)N/C(=C\c2cn(S(=O)(=O)N(C)C)c3ccccc23)C(=O)NCCN2CCOCC2)cc1	-2%	-0.3	-3	3.6	26	2.1	4.9	1
COCc1nnc(NC(=O)CSc2ccccc2)s1	2%	-0.2	-9	/	2	2.4	/	1
NS(=O)(=O)c1cccc(NC(=O)CCC(=O)c2cccs2)c1	-13%	-0.7	-6	-4.4	4	1.6	-0.2	-32
Cc1cc(C)nc(SCC(=O)Nc2nccs2)n1	/	-0.4	3	2.3	4	2.4	1.3	-4
Cc1ccc2nc(SCC(=O)Nc3ccc4c(c3)CCC4)[nH]c2c1	-11%	0.2	-10	-1.6	-4	-0.8	/	-4
O=C(NCCc1ccccc1)C1CCC(CNS(=O)(=O)c2cccs2)CC1 (stereo not given)	-6%	-0.7	-2	-2.2	-16	0.8	-1.5	-3
Cc1nc2ccccn2c1/C(O)=C1\C(=O)C(=O)N(CCN2CCOCC2)C1c1cccnc1 (stereo not given)	6%	-0.1	-27	5.1	4	3.9	/	-1
CC1(C)NC(=O)N(CC(=O)N2CCC(Cc3ccccc3)CC2)C1=O	/	-1.0	-6	0.3	2	-6.6	-1.9	-1
O=C(CSc1nnc(CNC(=O)c2c(F)cccc2Cl)o1)NC1CCCC1	/	0.6	6	0.7	0	2.1	-4.4	6
O=C(Cn1c2ccccc2c2nc3n(c(=O)c21)CCS3)N1CCCC1	6%	-0.1	-25	1.3	2	-4.4	/	-4
COCCOc1ccc(C(F)(F)F)cc1NC(=O)c1ccc(C(F)(F)F)cc1	6%	0.0	20	4.9	-7	8.7	3.7	-5
CCc1cccc(CC)c1NC(=O)/C(C#N)=C/c1ccccc1C(F)(F)F	-3%	2.9	9	-4.4	-4	-11	/	6
CN(C)c1nc(N)nc(CSc2nnnn2-c2ccc(C(=O)O)cc2)n1	27%	0.1	-8	0.7	7	18	/	-4
CCC(C(=O)N1CCN(c2ncccn2)CC1)c1ccccc1 (stereo not given)	-10%	0.3	6	-1.6	-5	-1.9	5.1	1
Cc1occc1C(=O)Nc1cccc([N+](=O)[O-])c1	4%	-3.5	-11	?	0	-1.8	/	-4
O=C(CSc1ccccn1)Nc1nncs1	-3%	2.5	0	0.3	2	0.1	/	-3
Fc1ccc(-c2nc3n(n2)Cc2ccccc2-3)cc1	1%	-12	/	-0.9	-2	1.0	/	21
COc1ccccc1CNC(=O)[C@@H]1CCCN1C(=O)[C@@H]1Cc2ccccc2CN1C(=O)OC(C)(C)C	15%	0.7	13	-4.9	-42	1.4	-0.2	-6
CCC(NC(=O)Nc1ncccc1C)(C(F)(F)F)C(F)(F)F	8%	-0.7	-13	-4.9	1	-6.3	/	1
Cc1cc(C(=O)COc2ccc([N+](=O)[O-])cc2)c(C)n1C1CC1	11%	-1.0	12	0.0	-7	-3.9	-7.9	13
CCOC(=O)C1C(C(=O)OCC)C1(c1ccccc1)c1ccccc1 (stereo not given)	-4%	0.5	-6	4.0	-28	12	-5.1	0
Cc1nc2ccccc2nc1OCC(=O)N1CCN(c2ccccc2)CC1	4%	0.5	-5	-6.4	3	-3.5	/	-1
Cc1ccc(C(=O)Nc2ccccc2C(=O)N2CCOCC2)cc1[N+](=O)[O-]	3%	-1.0	-2	1.4	-6	2.3	5.4	1
Cc1ccccc1[C@@]1(C)ON(c2ccccc2C(F)(F)F)C1=O	/	0.0	/	/	/	-16	0.6	-5
O=C(COc1ccc(Cl)cc1Cl)NNC(=O)c1cccnc1	/	-1.5	-7	7.3	6	-5.2	-0.8	-5
C[C@@H]1NC(=O)[C@H](CCC(=O)O)NC(=O)c2cc([N+](=O)[O-])cc(F)c2NCCC[C@@H](C(N)=O)NC1=O	30%	0.4	-5	6.4	-12	-2.4	-0.7	1
CC(C)C(=O)Nc1nc2c(ncn2C2CC(O)C(CO)O2)c(=O)[nH]1 (stereo not given)	-5%	-0.4	-10	9.8	-2	4.8	-10.0	-7
O=C(Nc1ccccc1)N1CCN(c2nc(-c3ccccc3)ns2)CC1	3%	2.4	-10	2.5	2	0.2	2.5	15
CCc1nc2ccccc2n(CCOCCOCCn2c(=O)c(CC)nc3ccccc32)c1=O	1%&0%	-1.1	13	-1.4	-4	-0.4	/	-2
O=C(Cc1c[nH]c2ccccc12)N/N=C/c1ccccc1O	7%	0.1	30	-3.6	2	-2.5	4.5	8
Cn1c(=O)oc2cc(S(=O)(=O)N3CCC(N4CCCCC4)CC3)ccc21	26%	-0.5	/	/	/	6.3	/	-3
C/C(=N\NC(=S)Nc1cccc(C)c1)c1cccc(N)c1	/	0.1	2	-6.7	-12	1.1	/	3
NC(=S)N/N=C/c1coc2ccc(Cl)cc2c1=O	31%	0.2	-7	0.4	-1	-0.4	0.2	/
COc1ccccc1N=Nc1nc(-c2ccccc2)c(-c2ccccc2)[nH]1	3%	0.8	46	-14	0	-4.3	11	32
CN(c1ccccc1)S(=O)(=O)c1ccc(C(=O)NCC2CCCO2)cc1 (stereo not given)	6%	1.1	-14	4.3	-19	0.9	/	1
O=C(CCCNS(=O)(=O)c1cccs1)N1CCN(c2ccc(F)cc2)CC1	-1%	0.0	0	?	-1	-3.7	/	4

Next part.
SMILES	Vif A3G	Bfl-1 A1 inh	T cruzi inh	RanGTP-Imp inh	Calb FLC	LANA-H2A inh	MLL AF4-AF9 inh	Beta apoptosis
N#Cc1ccccc1S(=O)(=O)N1CCN(c2cnccn2)CC1	30%	-0.9	-12	3.3	12	-1.3	-1.4	4
CC(C)c1ccc(/C=C2\C(=O)N(CCN3CCOCC3)C(=S)N2C)cc1	-3%	-0.6	27	-4.8	-4	3.8	13	-2
O=C(NNC(=O)c1cccnc1)Nc1cccc(Cl)c1Cl	/	0.0	-18	3.0	8	2.8	/	0
O=C(N/N=C/c1cn(-c2ccccc2)nc1-c1cccs1)c1ccc(Cl)cc1	/	-0.4	17	-1.3	-14	-1.8	/	48
Cc1cccc(NS(=O)(=O)c2ccc(C(=O)NCC3(N4CCCCC4)CCCCC3)cc2)c1C	5%	-0.3	-3	2.2	-3	-2.5	5.9	/
COc1ccccc1CC(=O)Nc1ccc([N+](=O)[O-])cc1OC	2%	-0.3	17	-1.0	16	-0.3	12	-4
CC(C)=CC/C=C1\CCC(C(=O)O)C(C(=O)O)C1 (stereo not given)	5%	-0.1	-7	0.5	10	-2.6	-2.5	/
CC(=O)c1cccc(N(C(=O)CNC(=O)c2ccco2)C(C(=O)NC2CCCC2)c2ccc(C)o2)c1 (stereo not given)	9%	-0.6	6	0.0	-11	-6.1	0.4	2
CCCCn1c(NC(=O)c2ccccc2Cl)c(C#N)c2nc3ccccc3nc21	-5%	0.2	15	-5.0	-1	-11	/	19
CN(CC(=O)Nc1cccc(C#N)c1)Cc1ccc(Cl)cc1	/	1.1	48	1.4	24	6.8	-4.9	-2
COc1ccc(NC(=O)Nc2cccc3c2O[C@H](CN(C)Cc2ccc(-c4ccccc4)cc2)[C@@H](C)CN([C@H](C)CO)C3=O)cc1	/	2.1	/	/	/	2.5	0.5&2.7	23
COc1cccc(CNC(=O)C2CCCN(c3ncnc4c3nc3n4CCCCC3)C2)c1 (stereo not given)	0%	0.3	16	-1.2	-13	3.4	-13	-4
CCOCCSC1=C(C#N)C(c2cccs2)C(C(C)=O)=C(C)N1 (stereo not given)	12%	0.1	21	1.6	48	11	/	4
O=C(Cc1ccc(Cl)cc1)OCC(=O)c1ccc[nH]1	-5%	0.1	/	/	/	1.1	1.0	2
